# Screening data as filed in PubChem.
# Sa RN4220 lethal: S. aureus RN4220 growth inhibition; OD600, 16 h; inhibition, % (test concentration not listed); 0.33% of 330,000 active;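 active = z-score of -3 or lower and OD600 up to 0.18 on both plates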;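 also: plate controls were untreated cells for no effect and reference antibiotic for full effect; stock transfer was 100 nL into about 80 µL; one replicate is shown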
# ugtP null kill: compounds lethal to S. aureus RN4220 ugtP deletion mutant; OD600 growth, 16 h; some inactives read as strong as hits; growth inhibition, % (concentration not given with the values); 0.54% of 330,000 active; AID 1259309;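 active = z-score under -3 and OD600 up to 0.15 on both plates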;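 also: plate controls were untreated wells for no effect and antibiotic for full effect; wells of about 80 µL received 100 nL stock; the first replicate is given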
# PrP UTR inh: suppresses PrP 5' UTR mRNA reporter expression; 0.35% of 340,000 active; AID 488862; inhibition, % (no concentration beside the values); cell-based PrP 5' UTR mRNA reporter, plate reader;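 active = every replicate at 50% or more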;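 also: 0 = median of the neutral control wells; tested in H4 reporter cells; numbers are from one replicate; inactives centre near -14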
# Bead autofluor: compound fluorescence in toxin protease inhibitor counterscreen. compound autofluorescence counterscreen, microsphere flow cytometry; hits give high values. fluorescence intensity (no concentration beside the values). 3.1% of 360,000 active. AID 624483;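 active = at least 3 SD above the mean of all compounds, about 16000 in these data; inconclusive = too few beads counted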;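 also: 100 nL of 1 mM stock went into each well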
# Mtb hypoxia inh: Mtb hypoxia fluorescent reporter inhibition. 0.1% of 300,000 active. fluorescence inhibition, % (no concentration beside the values). M. tuberculosis hypoxia-regulated fluorescent reporter, fluorescence;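 active = 35 to 45% if threefold the growth effect, above 45% if 1.5-fold the growth effect; inactive = the rest, general growth blockers included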;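 also: wells of about 50 µL received 100 nL stock; 0% = vehicle wells and 100% = reference inhibitor wells; whole bacteria with a GFP reporter of the hypoxia response; strong numbers were not always called active; many hits fall short of the cut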
# BJeLR viability: BJeLR cell viability loss; 0.17% of 300,000 active; inhibition, % (concentration not given with the values); BJeLR (HRASV12) viability, CellTiter-Glo ATP luminescence, 48 h; reference of the scale not given here;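 active = replicate mean above 50%; inconclusive = above 50% but judged a plate artefact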;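 also: 50 nL library stock added to about 25 µL; numbers are from one replicate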
# Mtb hypoxia inh growth: also measured in Mtb hypoxia inh; calls as there; growth inhibition, %; measured here: M. tuberculosis growth (absorbance);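 0% = vehicle and 100% = reference antibiotic; read after six days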
# Active calls of the source: *; ? = inconclusive; . = not tested or not shown.
# The first six entries as a preview:
SMILES,Sa RN4220 lethal,ugtP null kill,PrP UTR inh,Bead autofluor,Mtb hypoxia inh,Mtb hypoxia inh growth,BJeLR viability
COc1ccc(C(=O)NNC(=O)c2cc3cc(OC)ccc3oc2=O)cc1,5.6,5,-9,2877,0,4,-5
Cc1onc(-c2ccccc2Cl)c1C(=O)N1CCCCC1,2.7,5,-20,3151,4,-5,-7
Cc1cccc(-c2noc(C(C)NC(=O)c3ccco3)n2)c1 (configuration not stated),1.3,-2,-22,2923,6,-3,10
CC1CCCC(NC(=O)CSc2nncs2)C1C (configuration not stated),3.7,3,-14,4140,0,4,.
COc1ccc(NC(=O)CSc2nccn2Cc2ccco2)c(OC)c1,-2.4,0,-19,5875,-4,0,9
O=C(NC(Cc1ccccc1)C(=O)O)/C(=C/c1ccccc1)NC(=O)c1ccccc1 (configuration not stated),.,.,-35,2469,.,.,-7

# The whole of this part, previewed entries included:
SMILES,Sa RN4220 lethal,ugtP null kill,PrP UTR inh,Bead autofluor,Mtb hypoxia inh,Mtb hypoxia inh growth,BJeLR viability
COc1ccc(C(=O)NNC(=O)c2cc3cc(OC)ccc3oc2=O)cc1,5.6,5,-9,2877,0,4,-5
Cc1onc(-c2ccccc2Cl)c1C(=O)N1CCCCC1,2.7,5,-20,3151,4,-5,-7
Cc1cccc(-c2noc(C(C)NC(=O)c3ccco3)n2)c1 (configuration not stated),1.3,-2,-22,2923,6,-3,10
CC1CCCC(NC(=O)CSc2nncs2)C1C (configuration not stated),3.7,3,-14,4140,0,4,.
COc1ccc(NC(=O)CSc2nccn2Cc2ccco2)c(OC)c1,-2.4,0,-19,5875,-4,0,9
O=C(NC(Cc1ccccc1)C(=O)O)/C(=C/c1ccccc1)NC(=O)c1ccccc1 (configuration not stated),.,.,-35,2469,.,.,-7
CC(C)Oc1ccc(S(=O)(=O)N2CCOCC2)cc1NC(=O)CC1OC(=O)c2ccccc21 (configuration not stated),7.0,2,1,?,3,-2,-7
O=C1CN(C(=O)COC(=O)COc2ccccc2)c2ccccc2N1,7.1,6,-2,?,5,2,.
Cc1noc(NS(=O)(=O)c2ccc(N/C=C/C(=O)c3ccc4c(c3)OCO4)cc2)c1C,2.5,3,0,3728,2,18,4
COc1ccccc1NC(=O)Cc1cccs1,2.0,0,-6,3984,.,.,9
COCCCn1c(SC(C)C(=O)Nc2c(C)n(C)n(-c3ccccc3)c2=O)n[nH]c1=O (configuration not stated),2.0,-4,-24,4725,0,3,.
O=c1cc(-c2ccc(O)cc2)oc2ccc(O)cc12,1.5,0,-72,.,3,18,8
COc1ccc(C(=O)NC(C(=O)NCC(=O)Nc2c(C)cccc2C)C(C)C)cc1 (configuration not stated),1.2,3,-10,2566,-3,3,-17
CN(C)S(=O)(=O)c1ccc(Cl)c(NC(=O)CN2C(=O)NC3(CCc4ccccc43)C2=O)c1 (configuration not stated),4.4,3,-24,3612,6,8,.
Oc1ccccc1Nc1nc(NCc2ccccc2)c2ccccc2n1,27,28,-18,5505,-3,12,8
CC(Sc1nnc(Cc2cccs2)n1C1CCCCC1)C(=O)NCc1ccco1 (configuration not stated),4.9,-4,-6,2905,13,14,-1
N#C/C(=C\c1cn[nH]c1-c1ccc(Cl)cc1)C(=O)NC1CC1,9.2,5,-9,2147,4,8,-4
CC(C)CC(NC(=O)OC(C)(C)C)C(=O)NC(CO)C(O)C1CC1C(=O)NC1CC1 (configuration not stated),4.2,-1,.,.,-1,5,.
Cc1ccc2cc(CN(CC3CCCO3)C(=O)c3cccs3)c(=O)[nH]c2c1 (configuration not stated),1.4,10,-16,3849,8,12,-10
CC(C)COC(=O)c1cccc2c1-c1ccccc1C2=NO,-4.1,96*,.,.,8,11,.
O=C(O)c1ccc(/C=C2/SC(=S)N(Cc3ccccc3)C2=O)cc1,8.1,14,-15,3915,-4,5,11
CCN(c1ccc(NC(=O)CSc2nnc3nc(C)cc(C)n23)cc1)C(C)C,2.8,4,1,2527,.,.,-4
Nc1nc(-c2cccnc2)nn1C(=O)COc1ccccc1,4.2,-4,-31,24503*,-2,7,-4
Cc1cc(NC(=O)CN2C(=O)NC(CC(C)C)C2=O)no1 (configuration not stated),3.2,-1,-7,2971,25,2,.
CC(C)(C)n1nc2c(c1NC(=O)c1cccs1)CS(=O)C2 (configuration not stated),3.2,5,-3,2921,0,3,2
N/C(=N\OC(=O)/C=C/c1ccccc1Cl)c1ccncc1,4.2,0,-69,3271,-3,19,-1
CCOC(=O)C1=NNC(C(=O)c2ccc(OC)cc2)C1c1ccccc1 (configuration not stated),0.6,-8,-9,2828,.,.,-1
C[C@H](CO)N1C[C@H](C)[C@@H](CN(C)S(=O)(=O)c2ccccc2)Oc2c(NS(=O)(=O)c3cccs3)cccc2C1=O,-11,1,-33,4858,4,3,.
CCCN1CCN(CCCNC(=O)c2ccc3nc(N4CCCCC4)sc3c2)CC1,2.0,5,-55,4834,5,8,10
Cc1nc2ccc(NC(=O)c3cc(Cl)ccn3)cc2s1,7.5,3,-115,6736,0,1,-1
CN(CC(=O)Nc1ccc(F)c(F)c1F)C(=O)/C=C/c1ccco1,6.6,10,-14,2907,-7,-5,.
CCOc1ccc(C(=O)Nc2ccc(S(=O)(=O)N3CCN(C)CC3)cc2)cc1,5.5,8,-10,2944,4,10,-7
Cc1ccccc1CC(=O)Nc1ccon1,3.2,6,-2,3822,1,-5,-10
O=C(COc1ccc2ccc(=O)oc2c1)N1C[C@H]2C[C@@H](C1)c1cccc(=O)n1C2,-1.5,-1,-17,5880,.,.,11
Cc1ccc(N2CC(C(=O)N3CCC(C(=O)Nc4cccc(Br)c4)CC3)CC2=O)cc1 (configuration not stated),-1.5,4,0,3676,2,6,9
Cc1oc2ccc(NS(=O)(=O)c3cccc4cccnc34)cc2c1C(=O)OC(C)C,0.1,4,-21,2143,7,6,1
CCCCCCCCn1c(N2CCN(c3cccc(Cl)c3)CC2)nc2c1c(=O)[nH]c(=O)n2C,4.0,-3,-14,9367,7,8,-1
NC(=O)C1CCN(C(=O)CCSCc2ccc(Cl)c(Cl)c2)CC1,4.7,6,-20,3852,13,-3,1
Cc1cc(C(=O)N2CCCC(Nc3ccc(C(C)C)cc3)C2)nn1C (configuration not stated),5.8,11,-4,5951,-1,-2,11
Cc1ccc2ncnc(Oc3ncccc3[N+](=O)[O-])c2c1,2.0,3,-22,.,2,20,-2
Cc1nc(CCNC(=O)C2CCC(=O)N(Cc3cccc(F)c3)C2)sc1C (configuration not stated),4.8,9,3,5724,16,4,9
COc1cc(C=NNC(=O)C(N)=O)ccc1OC(=O)c1cccs1,6.0,-1,.,.,4,1,.
NC(=O)CN1CCN(c2nc(-c3ccc(F)cc3)cs2)CC1,-4.0,-1,-10,4771,.,.,0
CCN(CC)C(=O)CNC(=S)N(CCCN1CCOCC1)Cc1cccs1,-3.0,0,-11,2055,2,2,6
COc1ccc(CC(=O)Nc2cccc(-c3ccc4nncn4n3)c2)cc1OC,2.1,15,-19,4964,6,11,6
CCOC(=O)CNC(=O)CNC(=O)c1nn(-c2ccc(OC)c(Cl)c2)c(=O)c2ccccc12,5.1,0,-6,1886,12,1,-1
O=S(=O)(c1ccccc1Cl)N1CCC(O)(c2cccnc2)CC1,7.4,7,-24,4147,11,5,-4
O=C1c2ccccc2-c2nnc(-c3ccc(F)cc3)cc21,18,-1,7,4667,5,7,4
COc1ccc(OC(=O)CCc2c[nH]c3ccccc23)cc1,6.7,14,-11,2083,0,2,-3
CCN(CC(=O)Nc1ccc(NC(C)=O)cc1)CC(=O)Nc1ccc(Cl)c(Cl)c1,-1.3,8,-2,3823,2,1,-3
COc1ccccc1C1C(C#N)=C(N)Oc2cc(C)n(Cc3ccccn3)c(=O)c21 (configuration not stated),8.2,4,-18,?,-1,-2,2
O=C(Nc1cccc(Cl)c1)Nn1cnnc1,-2.8,-3,-13,3635,-4,5,-11
COc1ccc(CCN=C(NS(=O)(=O)c2ccc(Cl)cc2)c2ccccc2)cc1,5.6,-9,.,.,5,0,8
O=C(CC(=O)N/N=C/c1ccc(F)cc1)N/N=C/c1ccc(F)cc1,.,.,-7,3369,.,.,0
CCCCSc1nnc(CSc2nc3nc(C)cc(C)n3n2)o1,4.2,5,-18,5135,0,-2,3
N#CC1=C(N)C(C#N)(C#N)C(c2cccnc2)C2CN(C(=O)OCc3ccccc3)CC=C12 (configuration not stated),0.1,0,-9,2454,7,6,-15
Nc1nc(SCC(=O)c2c(N)n(C3CC3)c(=O)[nH]c2=O)n[nH]1,5.1,4,-19,?,3,5,.
CCCCCCN1CC(C(=O)OCC)C(=O)C1=O (configuration not stated),27,2,-8,2122,9,1,-12
Cc1ccc(S(=O)(=O)NN=Cc2ccc(OCC(=O)N3CCOCC3)cc2)cc1,4.9,4,.,.,7,0,.
O=C(NC1CCCCCC1)c1ccc(CS(=O)(=O)Cc2ccc(F)cc2)o1,2.3,12,-24,4524,6,-1,-4
# Additional entries follow.
SMILES,Sa RN4220 lethal,ugtP null kill,PrP UTR inh,Bead autofluor,Mtb hypoxia inh,Mtb hypoxia inh growth,BJeLR viability
CCOC(=O)N1CCN(C(=O)c2cc3cc(OC)c(OC)cc3[nH]2)CC1,2.6,-2,-22,3610,-1,8,-2
CC1CC(C)(C)NC(=S)N1CCC(=O)N1CCc2ccccc21 (configuration not stated),15,7,-24,4066,13,9,.
O=C(O)Cc1c(O)ccc2ccccc12,1.3,0,-16,?,19,12,3
Cc1ccc(CNC(=O)CSc2n[nH]c(N)n2)cc1,-1.1,-5,-30,4891,-7,7,-6
Cc1nc(C)c(C(=O)O)s1,2.8,1,-17,4973,1,7,7
O=C1c2cccc3cccc(c23)C(=O)N1N=Cc1ccc(O)cc1O,5.1,6,.,.,4,14,.
CCCS(=O)(=O)N1CCC(C(=O)NC2CCC(C)CC2)CC1 (configuration not stated),-5.9,-2,-42,3220,9,13,-16
O=C(Nc1ccc(S(=O)(=O)NCC2CCCO2)cc1)c1ccc(F)cc1 (configuration not stated),2.1,0,-14,4028,8,11,-1
COc1cc(CNCc2cccs2)ccc1OCc1cccs1,7.6,9,-34,9168,11,6,-1
CC1CCN(C(=S)NC(=O)c2ccco2)CC1,5.7,7,-20,5869,5,3,7
COc1ccc(C(=O)Nc2ccccc2C)cc1S(=O)(=O)N1CCOCC1,2.5,1,-8,5148,0,4,-4
CCCc1cc(-c2nc(-c3ccc(Cl)cc3)cs2)ccn1,0.1,0,-27,12326,.,.,-1
Cc1nc2c(ccc3nc(NC(=O)C(c4ccccc4)c4ccccc4)sc32)s1,-15,14,-21,5964,2,4,8
COc1ccccc1CC(=O)NC1CCCc2ccccc21 (configuration not stated),-3.8,-2,-14,2425,13,11,-3
Cc1cc(C(=O)COc2ccc(C#N)cc2)c(C)n1-c1ccc2c(c1)OCO2,-3.3,11,-16,2600,3,4,-7
O=C(COc1cccc(C(F)(F)F)c1)Nc1cccnc1,2.7,0,-14,5148,15,8,0
COC(=O)c1ccc(C(c2c(C)[nH][nH]c2=O)c2c(C)[nH][nH]c2=O)cc1,1.8,6,-4,3816,8,8,15
O=C(NNS(=O)(=O)c1ccc(Br)cc1)c1sccc1-n1cccc1,24,-15,-24,5612,-3,5,2
CCNC(=O)CN(c1ccc(C)cc1)S(=O)(=O)c1ccc(SC)cc1,-1.4,-4,-11,?,4,4,8
COc1ccc(OC)c2c(C)c(C)[nH]c12,2.4,7,-20,3855,3,-15,-7
CC(C)OP(=O)(c1ccc(N(C)C)cc1)C(O)c1ccccc1 (configuration not stated),4.1,-4,-17,8492,8,11,2
O=C(O)c1ccccc1CSc1ncccc1C(=O)O,1.4,3,0,4514,-2,14,4
CC1CCN(CCC(=O)Nc2ccc3c(c2)OCCO3)CC1,1.8,1,.,.,10,5,-8
CCN(C(=O)CSc1nc2scc(-c3ccccc3)c2c(=O)n1N)C1CCS(=O)(=O)C1 (configuration not stated),2.7,-1,6,5744,0,-7,.
Cc1ccc(NC(=O)OCc2cncs2)cc1,2.6,5,-61,4248,13,0,-4
COc1cc(NC(=O)Nc2ccc(Cl)c(Cl)c2)c(C(=O)O)cc1OC,-3.8,1,-18,5872,0,-9,8
CCOC(=O)CN1C(=O)N[C@@H](c2cccc(C(F)(F)F)c2)C(C(=O)OC)=C1C,.,.,-9,4119,.,.,6
